# Assay outcomes from PubChem.
# Mtb hypoxia rep = Mtb hypoxia fluorescent reporter inhibition; M. tuberculosis hypoxia-regulated fluorescent reporter, fluorescence; fluorescence inhibition, % (no concentration beside the values); actives 0.1% (n = 300,000); AID 1159583;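 active means 35 to 45% if threefold the growth effect, above 45% if 1.5-fold the growth effect; inactive means the rest, general growth blockers included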;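 further: wells of about 50 µL received 100 nL stock; 0% = vehicle wells and 100% = reference inhibitor wells; whole bacteria with a GFP reporter of the hypoxia response; strong numbers were not always called active; many hits fall short of the cut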
# Sa RN4220 lethal = kills Staphylococcus aureus RN4220; S. aureus RN4220 growth, OD600, 16 h; inhibition, % (concentration not given with the values); actives 0.33% (n = 330,000); AID 1259311;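 active means z-score of -3 or lower and OD600 up to 0.18 on both plates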;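 further: plate controls were untreated cells for no effect and reference antibiotic for full effect; stock transfer was 100 nL into about 80 µL; one replicate is shown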
# Bead autofluor = counter-screen for toxin protease inhibitors: compound fluorescence | compound autofluorescence counterscreen, microsphere flow cytometry; active compounds read high | fluorescence intensity (concentration not given with the values) | actives 3.1% (n = 360,000) | AID 624483;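 active means at least 3 SD above the mean of all compounds, about 16000 in these data; inconclusive means too few beads counted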;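 further: 100 nL of 1 mM stock went into each well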
# BJeLR lethal = kills HRASV12-expressing BJeLR cells | actives 0.17% (n = 300,000) | BJeLR (HRASV12) viability, CellTiter-Glo ATP luminescence, 48 h; reference of the scale not given here | inhibition, % (no concentration beside the values);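 active means replicate mean above 50%; inconclusive means above 50% but judged a plate artefact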;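 further: 50 nL library stock added to about 25 µL; numbers are from one replicate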
# PrP 5UTR inh = suppresses PrP 5' UTR mRNA reporter expression | cell-based PrP 5' UTR mRNA reporter, plate reader | inhibition, % (test concentration not listed) | actives 0.35% (n = 340,000) | AID 488862;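 active means every replicate at 50% or more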;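 further: 0 = median of the neutral control wells; tested in H4 reporter cells; numbers are from one replicate; inactives centre near -14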
# ugtP null kill = growth inhibition of S. aureus ugtP deletion strain | AID 1259309 | actives 0.54% (n = 330,000) | S. aureus RN4220 ugtP deletion, OD600 growth, 16 h; some inactives read as strong as hits | growth inhibition, % (no concentration beside the values);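 active means z-score under -3 and OD600 up to 0.15 on both plates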;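 further: plate controls were untreated wells for no effect and antibiotic for full effect; wells of about 80 µL received 100 nL stock; the first replicate is given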
# Mtb hypoxia rep growth = second read-out of Mtb hypoxia rep, no call of its own (marks repeat the call); growth inhibition, %; measured here: M. tuberculosis growth (absorbance);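 0% = vehicle and 100% = reference antibiotic; read after six days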
# * marks the source's active call; other numbers are inactive results; ? = inconclusive; . = no result given.
entry	structure	Mtb hypoxia rep growth	ugtP null kill	Sa RN4220 lethal	Bead autofluor	PrP 5UTR inh	Mtb hypoxia rep	BJeLR lethal
1	CCOC(=O)Cc1cc(=O)n2[nH]c(C)c(-c3ccccc3OC)c2n1	4.0	1.0	6.5	4928	-21.3	11.0	-7.6
2	CC(C)Cc1cc(C(=O)Nc2cccnc2)no1	6.1	6.0	15.4	5728	-47.7	-2.6	-9.4
3	COc1cc(OC)c(N(C)S(=O)(=O)c2cccc(C(=O)OCC(=O)N3CCOCC3)c2)cc1Cl	0.1	3.1	5.1	3350	-10.1	7.5	.
4	Cc1cc(=O)oc2cc(OCC(=O)N3CC[C@@]4(O)CCCC[C@H]4C3)c(Cl)cc12	.	-3.6	-1.4	6078	-24.3	.	-4.9
5	O=C(COC(=O)c1sc2ccccc2c1Cl)NC1CCCCC1	-0.9	4.7	8.6	2602	-5.2	2.4	-14.8
6	COc1cc(/C=C/C(=O)OCC(=O)NC2CC2)cc(S(=O)(=O)N2CCc3ccccc32)c1OC	-2.8	2.4	0.0	2000	-25.9	5.3	-0.7
7	O=C1c2ccc3c4c(ccc(c24)C(=O)N1NC(=O)C(F)(F)F)CC3	-4.9	-3.3	18.3	8744	-3.9	-12.2	5.8
8	O=C(NCCCn1ccnc1)Nc1cccc(Cl)c1	8.2	-8.9	1.9	9077	-21.8	7.8	-8.5
9	COc1ccc(/C=C2\Oc3cc(OCC(=O)N4CC(O)C[C@H]4C(=O)O)ccc3C2=O)cc1OC (stereo not given in full)	.	7.5	0.9	4303	-5.1	.	-3.3
10	O=C(Nc1cc(C(F)(F)F)ccc1-n1cncn1)c1ccc(-c2ccccc2)cc1	22.3	-23.1	-0.7	4245	-4.1	-3.0	3.3

# Next part.
entry	structure	Mtb hypoxia rep growth	ugtP null kill	Sa RN4220 lethal	Bead autofluor	PrP 5UTR inh	Mtb hypoxia rep	BJeLR lethal
11	CCCC(=O)Nc1cc(C)c(NC(=O)c2ccncc2)cn1	.	4.1	-3.0	4853	-19.7	.	4.9
12	CCC(=O)NC(Nc1sc2c(c1C(=O)OC)CCC2)C(Cl)(Cl)Cl (stereo not given)	1.3	-17.5	10.5	11097	-40.3	11.9	-7.3
13	Cc1ccc(C(=O)Nc2cccc3[nH]c(C(F)(F)F)nc23)cc1	-0.3	-10.8	8.5	4051	-14.2	2.6	5.8
14	CSc1ncccc1C(=O)Nc1nnc(C2CC2)s1	-11.8	6.7	11.3	4220	-27.3	-5.8	-17.3
15	CC(=O)c1c(C)[nH]c(C(=O)CN2CCN(S(=O)(=O)c3ccc(C(C)C)cc3)CC2)c1C	1.1	3.2	4.8	3711	-6.2	12.9	.
16	ClCC(CNCc1ccccc1)c1ccccc1 (stereo not given)	14.9	3.8	3.1	3203	-1.7	18.0	.
17	CN(Cc1ccccc1)Cc1ccccc1F	-1.4	3.7	2.1	?	-22.7	16.5	-8.4
18	O=C(Nc1ccc(NC(=O)C2CCCCC2)nc1)c1ccco1	2.1	12.2	-2.4	3101	-24.5	0.7	4.0
19	CC(=O)C1=C(O)CCC1=NCCc1ccccc1	3.6	0.9	2.6	7667	-32.0	1.4	-7.8
20	Cc1ccc(C(=O)N2CCC(n3nccc3NC(=O)C3CCOC3)CC2)cc1 (stereo not given)	4.4	2.5	4.0	6435	3.4	10.7	-2.9

# The list continues:
entry	structure	Mtb hypoxia rep growth	ugtP null kill	Sa RN4220 lethal	Bead autofluor	PrP 5UTR inh	Mtb hypoxia rep	BJeLR lethal
21	CCC(C)C(NC(=O)CCCNC(=O)CCC(=O)OC1O[C@H]2OC3(C)CC[C@H]4[C@H](C)CCC(C1C)C24OO3)C(=O)O (stereo not given in full)	.	.	.	3999	-13.9	.	2.1
22	Cc1ccc(S(=O)(=O)N2CCN(C(=O)c3n[nH]c4ccccc34)CC2)cc1	2.5	-7.3	0.0	?	-6.9	7.8	.
23	Cc1nnc(NC(=O)C(C)Sc2nnc(CNC(=O)c3ccccc3F)n2C)s1 (stereo not given)	-0.5	12.4	5.9	4469	-6.4	1.7	6.4
24	Cc1ccc(S(=O)(=O)NNC(=S)NC(C)(C)C)cc1	-0.7	-1.8	2.9	3753	.	-20.9	-0.6
25	C=CCOC(=O)C1=C(C)Nc2nnnn2C1c1cc(OC)ccc1OC (stereo not given)	-24.4	-3.5	-6.0	3193	-6.0	24.7	-6.0
26	COCC(=O)N(C)C[C@H]1N[C@@](C)(C(=O)OC)[C@H]2C(=O)N(C)C(=O)[C@@H]12	5.2	0.9	0.3	3865	-16.9	-1.6	.
27	O=C(NN=Cc1cccnc1)c1[nH]ncc1Br	2.9	0.3	3.2	.	.	-4.2	.
28	Cc1cccc(C(=O)Nc2cccc(C(=O)N3CCOCC3)c2)c1	7.7	-2.6	3.1	7888	.	4.8	-9.4
29	CCN(CC)CCNC(=O)CS(=O)Cc1nc(-c2ccc(C)cc2)oc1C (stereo not given)	11.4	7.3	3.0	5575	-9.8	6.2	5.6
30	CCNCC(=O)N1c2ccccc2CCc2ccc(NC(=O)OCC)cc21	-2.5	3.0	4.7	2975	-15.3	-2.3	-4.0

# Continuation.
entry	structure	Mtb hypoxia rep growth	ugtP null kill	Sa RN4220 lethal	Bead autofluor	PrP 5UTR inh	Mtb hypoxia rep	BJeLR lethal
31	CCOC(=O)N/N=C(\C)c1cccs1	.	.	.	2469	-29.2	.	8.9
32	O=C(NN=C1CCC(=NNC(=O)c2cccnc2)CC1)c1cccnc1	-0.2	13.3	4.7	4688	29.8	6.0	-0.8
33	COc1ccc(C=NNC(=O)CCCOc2ccc(Cl)cc2Cl)cc1[N+](=O)[O-]	7.5	-27.6	-6.3	.	.	2.0	.
34	CCCCn1c(N)c(N(CCC(C)C)C(=O)C(C)N2C(=O)c3ccccc3C2=O)c(=O)[nH]c1=O (stereo not given)	-5.9	3.3	1.0	?	-4.1	-5.9	-4.6
35	Cc1ccc(-c2ocnc2C(=O)N2CCN(C(=O)c3cccs3)CC2)cc1	8.1	14.5	0.7	3717	-12.4	9.8	-3.0
36	COc1ccc(C(C)=NNC(=O)C2CC2)cc1	-5.9	10.3	0.7	.	.	1.9	.
37	O=C1CN(C(=O)c2ccc(Br)o2)C(c2ccc(F)cc2)c2cc(Cl)ccc2N1 (stereo not given)	.	-7.8	-5.3	4928	6.0	.	-1.3
38	CC1CCc2nc(NC(=O)CN3CCN(c4ccc(F)cc4)CC3)sc2C1 (stereo not given)	4.8	-7.8	-1.4	5963	-7.2	1.1	-3.0
39	CC(Nc1nc(-c2cccnc2)nc2ccccc12)c1ccc(F)cc1 (stereo not given)	4.1	-7.8	-12.2	3922	-19.1	-1.4	1.1
40	COc1ccc(O)c(/C=N/NC(=S)NCCc2ccccc2)c1	.	.	.	4743	-25.8	.	-0.7

# The listing continues.
entry	structure	Mtb hypoxia rep growth	ugtP null kill	Sa RN4220 lethal	Bead autofluor	PrP 5UTR inh	Mtb hypoxia rep	BJeLR lethal
41	Cc1c(N=Nc2c(O)[nH]c(=S)[nH]c2=O)c(=O)n(-c2ccccc2)n1C	4.7	-0.3	5.6	6979	-4.5	11.3	8.8
42	COc1ccc(NC(=O)CN2CCc3ccccc3C2)c([N+](=O)[O-])c1	7.0	6.4	5.9	3749	-22.8	17.9	4.4
43	O=C(NN=Cc1cccnc1)c1ccc(NC(=O)c2cccc(Cl)c2)cc1	0.6	-13.2	-4.4	.	.	4.7	.
44	Cc1ccc(-n2c(-c3ccncc3)nnc2-c2ccco2)cc1	8.5	6.4	4.2	3557	-13.8	6.6	-16.3
45	Cc1ccc([N+](=O)[O-])cc1N(CC(=O)Nc1ccc(S(=O)(=O)Nc2cccc(C(F)(F)F)c2)cc1)S(C)(=O)=O	5.6	77.7	87.8*	7934	-7.0	15.6	-4.6
46	Cn1c(=NNC(=O)c2ccccc2Cl)sc2ccccc21	9.1	-0.7	2.6	.	.	0.8	.
47	O=C(N/N=C1/CC(c2ccccc2)Oc2ccccc21)C1CC1 (stereo not given)	.	.	.	2494	7.3	.	-1.9
48	CCCCP(=O)(CCCC)CCP(=O)(c1ccccc1)c1ccccc1	-4.4	7.4	5.2	2529	2.5	1.6	12.0
49	CN1C(=O)C2C(C3CC3)N3C(=O)CN(Cc4ccc(-c5ccccc5)cc4)C(=O)[C@@]3(C)C2C1=O (stereo not given in full)	8.1	-11.3	4.5	.	.	6.3	.
50	Cc1[nH]c2ccccc2c1C(=O)COC(=O)Cn1c(C)nc2ccccc21	0.6	6.6	11.3	2201	1.1	-1.2	-2.3

# (listing goes on)
entry	structure	Mtb hypoxia rep growth	ugtP null kill	Sa RN4220 lethal	Bead autofluor	PrP 5UTR inh	Mtb hypoxia rep	BJeLR lethal
51	c1ccc2c(c1)nc(Nc1ccc(N3CCCCC3)cc1)c1nncn12	.	.	.	5250	-20.6	.	-4.3
52	Cc1cc2ccccn2c1C(=S)NC(=O)c1ccccc1	2.3	8.7	4.7	2632	-18.1	4.3	-4.3
53	COc1ccc(CNC(=O)[C@H](C)NC(=O)N2CCn3c2nc2ccccc23)cc1	1.5	3.4	4.3	5276	-17.4	2.1	8.7
54	COc1ccccc1/C=C(\NC(=O)c1ccc(OC)c(OC)c1)C(=O)Nc1cccc([N+](=O)[O-])c1	-3.3	-8.7	-0.9	2404	-16.9	-4.4	-2.7
55	Cc1ccnc(N2C(=O)c3ccccc3C2Nc2cccc(C)c2C)c1 (stereo not given)	5.7	-2.9	-5.7	5536	-42.9	-1.5	-4.8
56	Cc1cccc(OCC(=O)Nc2ccc3oc(=O)ccc3c2)c1C	16.1	-8.0	3.9	5836	-18.2	4.8	7.3
57	Cn1c(=O)cc(N2CCc3ccccc32)[nH]c1=O	11.8	-4.5	-10.0	5757	-11.9	6.0	2.5
58	CCc1nc(N2CCOCC2)c(C#N)c2c1COC(C)(C)C2	6.3	-1.2	3.0	3189	-14.2	5.4	2.8
59	O=C(NC12CC3CC(CC(C3)C1)C2)C1CCCN1C(=O)NC1CCCCC1 (stereo not given)	6.4	1.5	6.4	3667	-16.1	17.4	-4.2
60	Cc1ccc(CSc2nc3ccncc3n2CC(=O)Nc2cc(C)cc(C)c2)cc1	2.6	-9.0	0.8	5656	-10.6	-6.4	-19.1

# Next section
entry	structure	Mtb hypoxia rep growth	ugtP null kill	Sa RN4220 lethal	Bead autofluor	PrP 5UTR inh	Mtb hypoxia rep	BJeLR lethal
61	CC(=O)Nc1cccc(NC(=O)CCn2cnc3cc(C)c(C)cc32)c1	3.2	-3.3	1.0	22641*	-31.1	-8.9	7.2
62	NCCCCC(NC(=O)C1CCNCC1)c1nnc(C(N)Cc2ccc(O)cc2)o1 (stereo not given)	-0.2	2.4	5.1	.	.	3.3	.
63	N#Cc1c(-c2ccccc2)nc(SCc2ccc(Cl)cc2)[nH]c1=O	.	.	.	2908	0.3	.	-4.9
64	O=C(Nc1cc(Cl)ccc1-n1cncn1)c1ccc(F)c(S(=O)(=O)N2CCOCC2)c1	10.3	9.5	2.7	7247	-26.6	3.2	-4.5
65	CCOC(=O)N1CCN(C(=O)CSC2=NS(=O)(=O)c3cc(F)ccc3N2)CC1	5.9	7.2	1.1	5596	-25.0	11.9	5.8
66	Cc1cc(C=C2C(=N)N3C(=NC2=O)SN=C3S(C)(=O)=O)c(C)n1-c1ccccc1	6.1	14.5	23.8	.	.	-1.7	.
67	CC(=NNC(=O)c1cc(-c2ccncc2)nc2ccccc12)c1ccc(OC(F)F)cc1	4.2	8.4	3.1	.	.	12.9	.
68	N#C/C(=C/c1ccc(-c2cccc([N+](=O)[O-])c2)o1)C(=O)Nc1nc(-c2cccs2)cs1	3.8	-16.3	1.6	2974	1.8	2.0	.
69	Cc1ccc(-c2cc(Cc3ccccc3)c(=O)[nH]n2)cc1	2.6	1.7	4.1	4275	-25.5	-7.0	0.1
70	COc1cccc(OCc2cc(/C=N/Nc3ccc(C(=O)O)cc3)ccc2OC)c1	.	.	.	3532	2.0	.	-2.6
71	CCC(C)(C)NC(=O)CN(C(=O)c1csnn1)c1cccc2c1CCCC2	-3.0	-6.2	4.7	3257	-6.7	-0.7	4.5
72	CCCCC(=O)NC1=C(C(=O)OC)SCC1	0.4	-2.4	6.1	2484	-18.7	-1.4	-13.8
73	O=C(COC(=O)c1ccc(O)cc1)Nc1ccccc1-c1ccccc1	6.2	-3.4	2.0	2162	-20.8	11.0	-2.1

# Outcome played no part in choosing rows, and some 4% of all compounds hit somewhere here.
